# VDR inh: blocks the human vitamin D receptor | VDR-SRC2-3 peptide fluorescence polarization, 2 h | P11473 | Potency, µM, inactives show max response, negative = inhibition, usual class: inhibitors | hit rate 0.93% among 400,000; active means well fitted inhibition curve with a large enough effect; inconclusive means small, poorly fitted or top-dose-only effect, or another doubt; inactive means no such curve, though single readings can be large or run the other way; further: series mostly up to about 120 µM
# Target sequence (P11473 whole entry, looked up): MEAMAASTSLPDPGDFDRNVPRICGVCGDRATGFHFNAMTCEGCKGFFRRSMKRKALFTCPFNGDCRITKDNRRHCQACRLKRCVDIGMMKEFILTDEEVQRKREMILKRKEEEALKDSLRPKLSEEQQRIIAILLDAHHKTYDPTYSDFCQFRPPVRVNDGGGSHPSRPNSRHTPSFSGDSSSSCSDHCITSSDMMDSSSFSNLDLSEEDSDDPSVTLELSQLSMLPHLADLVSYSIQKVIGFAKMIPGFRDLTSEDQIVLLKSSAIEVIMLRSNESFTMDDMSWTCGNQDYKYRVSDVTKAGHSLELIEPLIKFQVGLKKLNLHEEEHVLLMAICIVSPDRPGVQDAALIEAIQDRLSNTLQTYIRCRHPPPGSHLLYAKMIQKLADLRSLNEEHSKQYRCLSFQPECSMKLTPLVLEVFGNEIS
#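 VDR–SRC2-3 interaction, FP format. Cmpds 23 nl via pintool, brief spin, 2 h ambient incubation.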
# Starred values were filed as active, the others as inactive; ? = inconclusive; [ ] = remark or other dose. On the % scale 0 is the no-effect control and ±100 the full control effect; potency means the concentration at half of the fitted maximal effect. The list is partial; the hit share may differ from the screen's.
# Start of the data: the first 4 records, to show the layout:
SMILES | VDR inh
C=C(C)C(=O)N1CC2(CC(c3cccc(NC(=O)/C(C)=C\C)c3)=NO2)C[C@H]1C(N)=O (stereo partly drawn) | 0%
COc1cccc(C2=NOC(C(=O)NCC3CCCO3)C2)c1 (stereo not drawn) | -10%
COc1ccc(C2CC(c3ccc4ccccc4c3OC(C)=O)=NN2C(C)=O)cc1 (stereo not drawn) | 15%
CN1CCc2c(sc3c2C(=O)NC(c2ccc(OC(=O)c4ccccc4)cc2)N3)C1 (stereo not drawn) | 45µM*

# The listing, repeating the preview:
SMILES | VDR inh
C=C(C)C(=O)N1CC2(CC(c3cccc(NC(=O)/C(C)=C\C)c3)=NO2)C[C@H]1C(N)=O (stereo partly drawn) | 0%
COc1cccc(C2=NOC(C(=O)NCC3CCCO3)C2)c1 (stereo not drawn) | -10%
COc1ccc(C2CC(c3ccc4ccccc4c3OC(C)=O)=NN2C(C)=O)cc1 (stereo not drawn) | 15%
CN1CCc2c(sc3c2C(=O)NC(c2ccc(OC(=O)c4ccccc4)cc2)N3)C1 (stereo not drawn) | 45µM*
Cc1sc(NC(=O)CCCCC(=O)Nc2sc(C)c(C)c2C(=O)O)c(C(=O)O)c1C | -13%
O=c1[nH]c(SCc2ccc(Cl)cc2)nc2c1CCC2 | 0%
O=C1CSCC(=O)N1Cc1ccc(Cl)cc1Cl | -2%
CCSc1nnc(Cc2cc(=O)[nH]c(=O)[nH]2)n1-c1ccc(Cl)cc1 | -9%
O=C(N/N=C/c1ccc(O)c(O)c1)c1ccc(-n2cnnn2)cc1 | ?
CCc1cc(CNC(=O)CCc2nnc(Cc3cccc(C)c3)o2)on1 | 1%
O=C(O)CCC1=C2c3ccccc3CCN2C(=O)CC1 | 9%
CCOc1ccccc1NC(=O)C(=O)NCC(c1cccnc1)N1CCN(c2ccccc2)CC1 (stereo not drawn) | -3%
COc1ccccc1/C=C/CN1CCCC(CO)(CCc2ccccc2)C1 (stereo not drawn) | -2%
COc1ccc2sc(-c3ccc(N(C)C)cc3)c(-c3ccc4cc[nH]c4c3)c2c1 | -10%
Cc1ccc(O)c(C(=O)CC(=O)c2cccc(F)c2)c1 | -5%
CCn1c(CCCCc2n[nH]c(=S)n2CC)n[nH]c1=S | -9%
CC(C)C[C@H](NC(=O)C1(c2ccccc2)CCN(C(=O)[C@H]2CSCN2C(=O)OC(C)(C)C)CC1)C(=O)O | -10%
CCN(C(=O)COC(=O)c1ccc(Cl)c(N)c1)C1CCS(=O)(=O)C1 (stereo not drawn) | -9%
CCN(Cc1ccc(OC)c(COC)c1)CC1CCCN(CCc2cccc(OC)c2)C1 (stereo not drawn) | ?
CC(C)(C)OC(=O)N1CCC(CNC(=O)Nc2ccccc2)CC1 | 8%
Cc1ccc(C2=[N+]([O-])C(C)(C)CC2)cc1 | -6%
O=C(O)/C=C/C(=O)Nc1ccc(Oc2ncnc3cc(Cl)ccc23)nc1 | -8%
COc1ccc(/C=N/NC(=O)CSc2ccccc2)cc1OC | -3%
CCN(CC)CCN(C(=O)c1ccco1)c1nc2ccc(Br)cc2s1 | 12%
CCOc1ccc(Cl)cc1C(c1c(C)[nH][nH]c1=O)c1c(C)[nH][nH]c1=O | -1%
CCOc1ccc(S(=O)(=O)n2c(C)nc3ccccc32)cc1 | 10%
CN(CC(=O)Nc1ccccc1Cl)C(=O)CSc1ncc(C(F)(F)F)cc1Cl | -4%
COc1cccc(Nc2nc(CC(C)=O)ns2)c1 | 9%
Cc1nc([N+](=O)[O-])c(C(=O)O)n1C | 1%
CS(=O)(=O)N1CCCC(C(=O)Nc2cccc(F)c2)C1 (stereo not drawn) | -3%
CCn1c(=O)c2cc(C(=O)NCCN(C)C)sc2c2ccccc21 | 3%
CCOC(=O)C1=C(C)NC(=O)NC1c1ccoc1 (stereo not drawn) | 1%
CC(=O)Nc1c(-c2ccccc2)nc2cc(C)ccn12 | 10%
COc1ccc(NC(=O)c2cccc(OC(F)F)c2)cc1Cl | -2%
c1ccc(N2CCOCCOCCOCCOCCOCC2)cc1 | -10%
COc1ccc(-n2c(C)cc(C(=O)CCl)c2C)cc1 | ?
Cc1ccc2c(c1)c1c(c(=O)n(-c3ccccc3C)c(=O)n1CC(=O)NCc1ccccc1)n2C | 4%
CCCCNC(=O)COC(=O)c1ccc(Cl)c(S(=O)(=O)N2CCCC2)c1 | 7%
CNS(=O)(=O)c1cccc(C(=O)OCC(=O)c2ccc[nH]2)c1 | 13%
Cc1ccc([C@@H]2[C@@H]3C(=O)N(C)C(=O)[C@@H]3[C@]3(Cc4ccccc4)C(=O)N(Cc4ccccc4)CC(=O)N23)o1 | -18%
CN(C(=O)CS(=O)(=O)c1cn(CC(=O)N2CCCC2)c2ccccc12)c1ccccc1 | 7%
CCOC(=O)NC(Nc1cc(C)ccn1)(C(F)(F)F)C(F)(F)F | 10%
CCCNC(=O)Nc1nccs1 | 11%
O=C(c1ccco1)N1CCCN(Cc2cn[nH]c2-c2ccc(-c3ccccc3)cc2)CC1 | -11%
COc1ccc(NC(=S)NC(NC(=O)c2ccccc2Cl)C(Cl)(Cl)Cl)c([N+](=O)[O-])c1 (stereo not drawn) | -11%
CC(C)(C)c1ccc(C(=O)CC(=O)c2cc(Cl)ccc2O)cc1 | -6%
O=C(Nc1cccc(S(=O)(=O)N2CCCCCC2)c1)c1ccc(=O)[nH]c1 | -12%
NC(=O)c1cc(S(=O)(=O)N2CCCC2)ccc1OCCOc1ccccc1F | -10%
Cc1ccc(NC(=O)NC2CCN(CC(=O)Nc3nccs3)CC2)cc1 | 1%
CC1(C)NC(=O)N(CC(=O)Nc2nc(-c3ccc(F)cc3)cs2)C1=O | -11%

# Quoted from the listing:
# In VDR inh, CC(C)(C)c1ccc(C(=O)CC(=O)c2cc(Cl)ccc2O)cc1 is entered as -6%
# In VDR inh, CC(=O)Nc1c(-c2ccccc2)nc2cc(C)ccn12 is entered as 10%

# More results:
SMILES | VDR inh
O=C1OC[C@H]2CCCN2C(=O)[C@@H](CC(=O)N(CCO)Cc2ccccc2)C/C=C\C[C@@H]1Cc1ccc(F)cc1 | 6%
Cc1ccc(NC(=O)[C@@H]2CCCN2S(=O)(=O)c2ccccc2C(F)(F)F)cc1S(=O)(=O)N1CCOCC1 | -15%
Fc1ccc(Sc2ccccc2CNC2=NCCN2)cc1 | -11%
O=c1cc(CN2CCOCC2)c2cc(Cl)ccc2o1 | 9%
COC(=O)C(CC(C)C)NC(=O)C(N)Cc1ccccc1 (stereo not drawn) | -9%
O=C(COc1cccc(F)c1)N1c2ccccc2Sc2ccccc21 | 10%
CCO[C@@H]1OC(C(=O)N2CCN(C)CC2)=C[C@H](c2coc3ccccc3c2=O)[C@H]1CCCO | -7%
CCOC(=O)Cc1csc(NC(=O)COC(=O)/C=C/c2ccc(OC)cc2)n1 | 9%
CC1=C(/C=C/C(=C/C=C/C(C)=C/C(=O)O)c2ccc(C)cc2)C(C)(C)CCC1 | 22µM*
Cc1cc(-c2nnc(SCc3cccnc3)o2)no1 | 10%
COc1ccccc1CNC(=O)c1cc(S(=O)(=O)N2CCCC2)cn1C | -8%
CCCOc1ccc(C2C(C(=O)c3ccc(C)o3)=C(O)C(=O)N2Cc2ccco2)cc1OCC (stereo not drawn) | ?
O=c1c(Cl)nc2cc(Cl)ccc2n1CCNc1ncc(C(F)(F)F)cc1Cl | -18%
Cc1nnc(NC(=O)c2ccccc2Oc2ccccc2)s1 | 2%
Cc1cccc(C)c1NC(=S)Nc1ccccc1C(=O)NCc1ccco1 | -12%
O=C(/C=C/c1ccc(Cl)cc1Cl)NCCN1CCOCC1 | 34%[activator]
CCCn1c(C)nc2cc(Cl)c(N3CCN(c4nc(-c5ccc(C)cc5)cs4)CC3)cc21 | -8%
O=C(NCc1cccnc1)c1ccc(Cn2cc(C(F)(F)F)ccc2=O)cc1 | 3%
Cc1ccc2oc(=O)c3cc(C(=O)NCCCN4CCCC(C)C4)sc3c2c1 (stereo not drawn) | 17%
O=C(NC(=S)NCc1ccccc1)C1CCCCC1 | -2%
COc1cc2c(cc1OC)C1Cc3ccc(OC)c(OC)c3CN1CC2 (stereo not drawn) | -9%
Cc1ccc(CCNC(=O)C23C[C@H]4C[C@@H](C2)CC(n2nnc(C)n2)(C4)C3)cc1 | 9%
COc1ccc(C2=NN(C(=O)c3ccncc3)C(c3ccccc3O)C2)cc1 (stereo not drawn) | -7%
Cc1ccc(S(=O)(=O)N2CCOCC2)cc1NC(=O)COC(=O)c1cc[n+]([O-])cc1 | 6%
CCOc1ccccc1CNc1ncnc2c1nc1n2CCCC1 | 6%

# Random excerpt: four entries already listed, in no set order.
SMILES | VDR inh
COc1ccccc1CNC(=O)c1cc(S(=O)(=O)N2CCCC2)cn1C | -8%
O=C(COc1cccc(F)c1)N1c2ccccc2Sc2ccccc21 | 10%
CCO[C@@H]1OC(C(=O)N2CCN(C)CC2)=C[C@H](c2coc3ccccc3c2=O)[C@H]1CCCO | -7%
Fc1ccc(Sc2ccccc2CNC2=NCCN2)cc1 | -11%

# Following part
SMILES | VDR inh
O=C(CSc1nnc2ccc(-c3ccccn3)nn12)Nc1ccc(F)cc1F | 11%
COc1cc(-c2noc(CN3CCN(c4ccccc4)CC3)n2)cc(OC)c1OC | -15%
COCc1c(C(=O)N2CCN(Cc3nc4ccccc4s3)CC2)oc2ccccc12 | -6%
Cc1ccc(SCc2nc(-c3ccc(C(=O)NCc4ccccc4Cl)cc3)oc2C)cc1 | -4%
O=C(NCCc1ccc(Cl)cc1)C1CCN(c2ncccn2)CC1 | -9%
Cc1cc2oc(=O)cc(CSc3nc(N)cc(N)n3)c2cc1C(C)C | -1%
COc1cc(C2(c3ccc(O)c(OC)c3)C(=O)N(C)c3ccc(C)cc32)ccc1O | 8%
CC(C)n1ncc2c(C(=O)O)cc(C3CC3)nc21 | ?
Cn1c(SCC(=O)Nc2cccnc2Cl)nnc1-c1ccco1 | 12%
Cc1ccc(S(=O)(=O)Nc2ccncc2)c(C)c1 | 26%
OCc1ccc(-c2ccccc2)c(-c2ccccc2)c1 | 5%
Cn1c(SCC(=O)NCC2CCCO2)nc2c([nH]c3ccccc32)c1=O (stereo not drawn) | -9%
Cc1ccccc1OCC(=O)N/N=C/c1cccc2cccnc12 | -1%
COc1ccc(C(=O)NCC2(c3ccccc3)CCOCC2)cc1 | -7%
CCOc1ccccc1NC(=O)c1cc(=O)[nH]c2ccc(S(=O)(=O)N3CCOCC3)cc12 | 8%
COc1ccc(N2CCN(CCNC(=O)Nc3cccc(C)c3C)CC2)cc1 | -20%
O=C(NCc1ccccc1Cl)C1CCN(S(=O)(=O)c2cccs2)CC1 | -4%
O=C(CN(C(=O)CSc1nc2ccccc2o1)c1ccccc1F)NC1CCCCC1 | 8%
Cc1cc(N(CC(=O)NC(C)C)S(C)(=O)=O)ccc1Br | ?
COCCN1C(=O)C(O)=C(C(C)=O)C1c1ccc(F)cc1 (stereo not drawn) | 1%
COc1ccc(CCN(Cc2ccccn2)C(=S)Nc2ccccc2Cl)cc1OC | 10%
CCCc1c(C)[nH]c2ccc(NC(C)=O)cc2c1=O | 8%
Cc1ccc2[nH]c(=O)cc(C(=O)OCC(=O)c3ccccc3)c2c1 | -4%
COc1ccc(CCC(=O)OCC(=O)c2c(N)n(CC(C)C)c(=O)n(C)c2=O)cc1 | 4%
O=C(Nc1sccc1C(=O)N1CCOCC1)c1cccnc1 | -1%
CCOc1ncccc1C(=O)OCC(=O)Nc1cc(C)ccc1C | 1%
O=C(c1cc(COc2ccc3ncccc3c2)on1)N1CCCCCC1 | 5%
Cc1nn(C)c(N)c1C(O)(c1nccn1C)C(F)(F)F (stereo not drawn) | 12%
O=C(NNC(=S)NC(=O)c1cccnc1)c1ccc(Cl)cc1 | -12%
CCCC(C(=O)NC1CCCC1)N(CC1CCCO1)C(=O)c1snc(C(N)=O)c1N (stereo not drawn) | -14%
CC1CCN(C(=O)CSc2nnc(-c3ccccc3Cl)o2)CC1 | -17%
CCOC(=O)c1c(NC(=O)COc2cccc(C)c2C)sc(C(C)=O)c1C | 8%
CCCc1nnc(NC(=O)C(CC)OC(=O)c2cc(C)nc3ccccc23)s1 (stereo not drawn) | -18%
CCN(CC)CCNC(=O)/C(=C\c1cccn1C)NC(=O)c1cccs1 | -20%
O=[N+]([O-])c1ccc2[nH]c(O)c(N=NC(=S)NCC3CCCO3)c2c1 (stereo not drawn) | -13%
COc1ccc(NC(=S)NCc2ccc(F)cc2)c(OC)c1 | 4%
O=C(Nc1nncs1)C12CC3CC(CC(C3)C1)C2 | -7%
O=C(CCn1nc(-c2ccccc2)c2ccccc2c1=O)NCC1CCCO1 (stereo not drawn) | -1%
COc1cc(C(=O)OC(C)C(=O)NC2CCCCC2C)c([N+](=O)[O-])cc1OC (stereo not drawn) | -11%
COc1ccccc1OCc1ccc(C(=O)NC(C)c2ccccc2)o1 (stereo not drawn) | -9%
CN1CCN(CCC(=O)N/N=C/c2cc3c(cc2[N+](=O)[O-])OCO3)CC1 | 17%
COc1ccc(-c2nnc3n(CCc4ccccc4)c(=O)c4ccccc4n23)c(OC)c1 | -19%
CCCN1C2CCCC1CC(NC(=O)c1ccccc1OCC)C2 (stereo not drawn) | 2%
O=c1[nH]c2nc(Cl)nc(Cl)c2[nH]1 | 4%
C[C@H](NC(=O)c1nc[nH]c1C(=O)N[C@@H](C)c1ccccc1)c1ccccc1 | 0%
COc1ccc(NC(=O)N2CC3(CCN(C(C)=O)CC3)C2)cc1 | -2%
CC(NC(=O)c1ccco1)C(=O)OCC(=O)N1CCCCCC1 (stereo not drawn) | -3%
CCOC(=O)C1CCCN(c2c(NCCCN(CC)c3ccccc3)c(=O)c2=O)C1 (stereo not drawn) | 8%
CCOc1cc(C(=O)NCC(c2ccc(N(C)C)cc2)N2CCOCC2)cc(OCC)c1OCC (stereo not drawn) | 5%
Cn1cc(S(=O)(=O)N2CCc3ccccc32)cc1C(=O)NC(C)(C)C | -17%
N#C/C(=C(/O)c1ccc2c(c1)OCO2)c1nc2cc(C(F)(F)F)ccc2s1 | -4%
